Screening data deposited in PubChem BioAssay by ICCB-Longwood Screening Facility, Harvard Medical School.
UCH37 DUB inh: blocks the human deubiquitinase UCH37; Q9Y5K5; purified proteasome/UCH37, Ub-AMC cleavage fluorescence; inhibition, % (concentration not given with the values); actives 0.33% (n = 330,000); AID 588478;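 active = mean of two replicates above 20%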;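 also: 0% = compound-free wells with enzyme and 100% = wells lacking proteasome; stock transfer was 100 nL into about 20 µL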
Target sequence (Q9Y5K5 whole entry, looked up): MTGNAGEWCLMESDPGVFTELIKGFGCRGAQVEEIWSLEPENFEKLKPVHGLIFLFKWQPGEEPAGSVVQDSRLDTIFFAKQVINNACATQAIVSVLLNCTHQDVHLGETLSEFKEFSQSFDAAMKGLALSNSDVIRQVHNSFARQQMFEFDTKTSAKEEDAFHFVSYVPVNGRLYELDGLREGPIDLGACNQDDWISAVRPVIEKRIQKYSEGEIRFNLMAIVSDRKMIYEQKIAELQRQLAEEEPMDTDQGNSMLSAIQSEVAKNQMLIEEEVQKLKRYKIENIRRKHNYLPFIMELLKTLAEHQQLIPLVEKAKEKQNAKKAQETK
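assay system = human UCH37 enzyme supplied as purified proteasome complex | amount = proteasome at 0.15 nM in the dispensed enzyme solution | schedule = 30 min compound-proteasome preincubation then 25 min substrate reaction, room temperature | measured by = fluorescence, ex 355 nm, em 460 nm | benchmarks = no-proteasome wells (full inhibition) and compound-free wells (no inhibition)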
Ecoli growth: E. coli growth inhibition; OD600 absorbance (test concentration not listed); Escherichia coli growth, OD600, 23 h; stronger effect = lower value; actives 0.21% (n = 330,000);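 active = OD600 absorbance below the run mean of sample wells minus 3.6 SD, in any replicate, cut at about 0.56 in these data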;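 also: stock transfer was 300 nL into about 60 µL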
Starred values were filed as active, the others as inactive. Some of the compounds tested; rates above refer to the full screens.

SMILES	UCH37 DUB inh	Ecoli growth
Cc1nn(C)cc1C=NNC(=O)c1ccc2c(c1)c(C)c(C)n2Cc1ccccc1	0.3	0.68
CCCCCn1nc(C)c(C=NNC(=O)c2cc(C)oc2C)c1C	2.8	0.69
CC(=NNS(=O)(=O)c1ccc(F)cc1)c1ccc(NC(=O)c2ccc(C)o2)cc1	2.4	0.69
CC(=NOC(=O)c1ccc(Br)cc1)c1ccc(C)cc1	1.6	0.67
COc1ccc(C(=O)Oc2ccc(C=NNC(=O)c3cccnc3)cc2OC)cc1	-6.7	0.68
CC(=NNC(=O)COc1cccc2ccccc12)c1cccs1	1.1	0.68
COc1ccc(C=NNc2cc(C)nc(NS(=O)(=O)c3ccc(C)cc3)n2)cc1	4.1	0.71
CCn1c(SCC(=O)NN=Cc2ccncc2)nc2ccccc21	0.2	0.66
O=C(NN=Cc1cccc(O)c1)c1ccc(COc2ccccc2Br)cc1	4.1	0.67
CCOC(=O)CC(C)=NNC(=O)CN(c1ccc(Br)cc1)S(=O)(=O)c1ccccc1	4.6	0.73
O=C(NN=Cc1ccco1)Nc1cccc(Cl)c1	6.9	0.66
CC(CC(=O)NC12CC3CC(CC(C3)C1)C2)=NNC(=O)c1ccc(F)cc1	2.0	0.66
Cc1cccc(C=NNC(=O)c2ccccc2OCc2cccc(Br)c2)n1	5.6	0.67
COc1cc(C=NNC(=O)CSc2n[nH]c(=O)[nH]c2=O)cc(OC)c1O	2.7	0.66
CC(=NNc1ccc(Cl)c(C(=O)O)c1)c1ccc(N2CCOCC2)cc1	13	0.67
Cc1c(NC(=S)NN=C/C=C/c2ccccc2)c(=O)n(-c2ccccc2)n1C	19	0.64
CCOc1cc(C=NNC(=O)c2cc(-c3cccnc3)nc3ccccc23)ccc1O	5.5	0.7
CCCOc1ccc(C=NNC(=O)CN2CCCCC2)cc1OCC	1.9	0.66
CCOc1ccc(-c2c(C(=O)NN=C(C)c3cccs3)nnn2-c2nonc2N)cc1	-3.4	0.68
COc1ccc(C=Nn2c(C)nc3sc(C)c(C)c3c2=O)cc1	0.5	0.67
Cc1cc(C(=O)NN=Cc2ccncc2)c2ccccc2n1	1.1	0.69
Oc1c(Br)cc(Br)cc1C=NNc1ccc(Cl)nn1	6.8	0.7
Cc1cc(C(=O)NN=Cc2ccc(-c3ccc([N+](=O)[O-])cc3Cl)o2)n[nH]1	13	0.67
NC(=O)NN=Cc1cc(Br)ccc1OC(=O)c1ccccc1	2.7	0.74
Cc1cc(C=NNc2ccc([N+](=O)[O-])cn2)c(C)n1-c1ccc(C(=O)O)cc1	11	0.73
O=C(Cc1ccccc1)NN=Cc1ccc(OC(=O)/C=C\c2ccco2)cc1	1.0	0.73
O=[N+]([O-])c1ccc(C=NNC(=S)Nc2ccccc2C(F)(F)F)o1	3.4	0.49*
C(=NN1CCOCC1)c1cccs1	2.2	0.69
NC(=NOC(=O)c1ccc2c(c1)OCO2)c1ccc([N+](=O)[O-])cc1	0.8	0.7
CC(=O)Nc1cccc(C(=O)NN=Cc2cccnc2)c1	1.8	0.68
COc1cccc(C(=O)NN=Cc2cn[nH]c2-c2ccc(OC)cc2OC)c1	1.7	0.72
CC(=NNC(=O)CNC(=O)c1cccnc1)c1ccc([N+](=O)[O-])cc1	6.5	0.67
O=C(Cn1nnc2ccccc21)NN=C/C=C/c1ccccc1	2.0	0.69
CCC(C)C(C)=NNC(=O)c1ccccc1OCCOc1ccccc1 (stereo not given)	5.6	0.66
Cc1nn(CC(=O)NN=Cc2cccs2)c(C)c1[N+](=O)[O-]	0.9	0.68
CC(=NNS(=O)(=O)c1cc(C)ccc1C)c1ccncc1	0.5	0.67
COc1ccc(S(=O)(=O)NN=C(C)c2ccc(C)o2)cc1	1.2	0.7
CCc1ccc(NC(=O)CC(C)=NNC(=O)COc2ccc(C)cc2Br)cc1	-1.0	0.69
Cc1ccc(C=NNC(=O)CCc2n[nH]c(=O)[nH]c2=O)o1	3.7	0.71
O=C(O)CCC(=NNc1ccc([N+](=O)[O-])cc1)C(=O)O	13	0.72
Brc1ccc(-c2ccc(C=NNc3nc4ccccc4[nH]3)o2)cc1	-125	0.69
O=C(NN=Cc1ccc(Sc2nc3ccccc3[nH]2)o1)c1ccncc1	5.1	0.67
Nc1scc2c(C(=O)NN=Cc3ccc(Cl)cc3)nn(-c3ccccc3)c(=O)c12	9.2	0.68
Cc1nc(C)c(CC(=O)NN=Cc2ccc(O)cc2)c(=O)[nH]1	1.1	0.69
COc1cccc(NN=C(C#N)S(=O)(=O)C(C)(C)C)c1	14	0.61
COc1ccc(NN=C2CCCCC2=O)cc1	7.9	0.7
CC(=NNC(=S)NC(C)C)c1ccc(Cl)s1	8.1	0.69
CC(C)c1c(C(=O)NN=Cc2ccc(OCc3ccccc3)cc2)nnn1-c1nonc1N	-20	0.71
COc1ccc(C=NNC(=O)c2sc(C)nc2C)cc1	3.9	0.69
CC(C)Oc1ccccc1C=NNc1ccccc1[N+](=O)[O-]	7.6	0.72
CCOc1cccc(C=NNC(=S)Nc2ccccc2[N+](=O)[O-])c1O	49*	0.74
ON=C(c1ccccc1)c1nccc2ccccc12	0.9	0.75
COc1ccc(C2C(C#N)=C(N=CN3CCN(C)CC3)OC3=C2C(=O)CC(C)(C)C3)cc1OC (stereo not given)	6.0	0.68
Cc1ccc(C(=O)/C=C/NNC(=O)c2ccccc2)cc1	3.6	0.73
CC(=NNC(=O)c1c(Cl)cnn1C)c1cccnc1	2.2	0.7
Cc1ccc(C(=O)C=CNc2ccc(C)c(C)c2)cc1	2.3	0.7
C(/C=C/c1ccco1)=Nn1cnnc1	15	0.71
CC(=NNS(=O)(=O)c1cccc([N+](=O)[O-])c1)c1cc2ccccc2o1	7.1	0.63
Cc1ccc(S(=O)(=O)NN=Cc2ccc(O)c(O)c2)cc1[N+](=O)[O-]	0.0	0.72
Cc1[nH]c(=O)[nH]c(=O)c1C=NNC(=O)[C@H](C)N	-0.5	0.68

Ordered by molar mass (smallest number first): three of the compounds above
SMILES	UCH37 DUB inh	Ecoli growth
CC(=NNS(=O)(=O)c1cc(C)ccc1C)c1ccncc1	0.5	0.67
NC(=O)NN=Cc1cc(Br)ccc1OC(=O)c1ccccc1	2.7	0.74
COc1ccc(C=NNc2cc(C)nc(NS(=O)(=O)c3ccc(C)cc3)n2)cc1	4.1	0.71

A draw from above in order of formula weight, smallest number first.
SMILES	UCH37 DUB inh	Ecoli growth
C(/C=C/c1ccco1)=Nn1cnnc1	15	0.71
Cc1[nH]c(=O)[nH]c(=O)c1C=NNC(=O)[C@H](C)N	-0.5	0.68
ON=C(c1ccccc1)c1nccc2ccccc12	0.9	0.75
Cc1ccc(C(=O)C=CNc2ccc(C)c(C)c2)cc1	2.3	0.7
CC(=NNC(=S)NC(C)C)c1ccc(Cl)s1	8.1	0.69
Cc1ccc(C(=O)/C=C/NNC(=O)c2ccccc2)cc1	3.6	0.73
COc1cccc(NN=C(C#N)S(=O)(=O)C(C)(C)C)c1	14	0.61
CC(C)Oc1ccccc1C=NNc1ccccc1[N+](=O)[O-]	7.6	0.72
Cc1nc(C)c(CC(=O)NN=Cc2ccc(O)cc2)c(=O)[nH]1	1.1	0.69
CC(=NNS(=O)(=O)c1cccc([N+](=O)[O-])c1)c1cc2ccccc2o1	7.1	0.63
CCOc1cccc(C=NNC(=S)Nc2ccccc2[N+](=O)[O-])c1O	49*	0.74
O=C(NN=Cc1ccc(Sc2nc3ccccc3[nH]2)o1)c1ccncc1	5.1	0.67
Brc1ccc(-c2ccc(C=NNc3nc4ccccc4[nH]3)o2)cc1	-125	0.69
Nc1scc2c(C(=O)NN=Cc3ccc(Cl)cc3)nn(-c3ccccc3)c(=O)c12	9.2	0.68
CC(C)c1c(C(=O)NN=Cc2ccc(OCc3ccccc3)cc2)nnn1-c1nonc1N	-20	0.71

The results go on:
SMILES	UCH37 DUB inh	Ecoli growth
Cc1ccc(C=NNc2nncn2N)cc1	5.5	0.66
O=[N+]([O-])c1ccc(NC(=S)NC(=NCS(=O)(=O)c2ccccc2)c2ccccc2)cc1	5.8	0.7
Cc1cccc(-c2n[nH]c(=S)n2N=C/C=C/c2ccco2)c1	9.4	0.64
O=C1Nc2ccccc2C1=Nc1sc2c(c1C(=O)Nc1ccccc1)CCCC2	5.0	0.75
O=C(NN=Cc1cccc([N+](=O)[O-])c1)c1cc[n+](CCO)cc1	6.6	0.65
COc1ccc(OCC(=O)NN=C/C(C)=C/c2ccco2)c(Br)c1	-3.6	0.66
Clc1ccccc1NN=Cc1ccc2c(c1)OCO2	2.8	0.66
CC(=NN=C(c1ccccc1)c1ccccc1)c1cccs1	7.0	0.69
O=C(NN=Cc1ccccc1[N+](=O)[O-])c1ccncc1	3.8	0.69
Cc1nn(-c2ccccc2)c(C)c1C=NNS(=O)(=O)c1ccc(Cl)cc1	4.1	0.75
Cc1cccc(C(=O)Nc2ccc(C(=O)NN=Cc3cccc(C)n3)cc2)c1	4.3	0.66
CC(=NOC(=O)c1c(-c2c(Cl)cccc2Cl)noc1C)c1cnccn1	2.4	0.7
COCc1cc(C)n(CC(=O)NN=Cc2ccc(-c3ccc(Cl)c(C(=O)O)c3)o2)c(=O)c1C#N	-35	0.69
Nc1c(C(=O)NN=Cc2cccnc2)cnn1-c1ccccc1	4.5	0.65
O=C(CN(Cc1ccccc1)S(=O)(=O)c1ccccc1)NN=Cc1ccc([N+](=O)[O-])cc1	2.8	0.7
Nc1nonc1-c1nc2ccccc2n1CC(=O)NN=Cc1ccc(-c2cccc(C(=O)O)c2)o1	-5.9	0.69
CN(C)C=NNC(=O)c1ccccc1	4.0	0.7
O=C(O)c1ccc(C=NNc2ccccn2)cc1	14	0.69
CON=Cc1ccc(OC)c(Oc2nc(OC)cc(OC)n2)c1	1.0	0.7
O=C(CN1CCN(Cc2ccccc2)CC1)NN=Cc1ccc(Br)s1	2.6	0.69
CCOc1ccc(C(CCC(=O)O)=NNC(=S)NC(C)C)cc1	2.8	0.68
C=CCc1cccc(C=NNC(=O)CCC(=O)Nc2ccc(C)cc2)c1O	2.1	0.75
CCOC(=O)c1ccc(-c2ccc(C=NNC(=O)CN(c3cccc(C)c3)S(C)(=O)=O)o2)cc1	-185	0.79
CC(=O)c1sc(NN=C2CC3CC2C(C)C3(C)C)nc1C (stereo not given)	-2.5	0.69
CC(=O)c1sc(NN=Cc2ccc(N(C)C)cc2)nc1C	-16	0.65
O=C(NN=Cc1ccc(Cl)cc1)c1sccc1-n1cccc1	2.2	0.82
CC(=NNC(=O)c1cccs1)c1ccc(NC(=O)COc2ccc(Cl)cc2)cc1	-42	0.78
O=C1N=C(O)CN1N=Cc1ccc(-c2ccc([N+](=O)[O-])cc2)o1	5.1	0.62
COc1ccc(C=NNC(=O)c2ccccc2Cl)cc1CSc1nc2ccccc2s1	4.7	0.68
Cc1cc(SCC(=O)NN=Cc2ccc(O)cc2O)c(C)cc1Br	3.4	0.7
CC(=NNS(=O)(=O)c1ccc(C(C)(C)C)cc1)c1ccccc1	0.2	0.61
CCCCC(=O)NN=Cc1ccc(-c2ccc([N+](=O)[O-])cc2)o1	0.5	0.71
CCN(CC)c1ccc(C=NNC(=O)Nc2nonc2N)cc1	-19	0.7
COc1ccc(C=NNC(=O)CN2CCSCC2)cc1C	4.3	0.71
O=C(NN=Cc1ccc(Cl)cc1Cl)C(=O)NC1CC1	1.8	0.71
Cc1cc(C=NNC(=O)COc2cccc3cccnc23)c(C)n1-c1ccc(O)cc1	0.6	0.7
COc1ccc(OCC(=O)NN=C(C)c2cc3ccccc3o2)cc1	-11	0.62
Cn1cccc1C=Nn1cnnc1	3.3	0.66
Cc1ccsc1C=NN=C1C(=O)Nc2ccccc21	2.0	0.7
O=C(NN=Cc1ccc(-c2cccc(C(F)(F)F)c2)o1)c1ccccc1Br	-12	0.64
COc1cc(C=NNC(=O)c2ccc(CSc3nncn3C)cc2)cc(OC)c1O	7.9	0.71
Cc1cccc(C(=O)Nc2cccc(C(=O)NN=Cc3ccc4c(c3)OCO4)c2)c1	2.5	0.65
CC1(C)OC(c2ccccc2)=C/C(=C\C=NNC(=O)c2ccncc2)O1	13	0.64
COc1cccc(C=NNC(=O)c2cccc([N+](=O)[O-])c2)c1OS(=O)(=O)c1ccccc1	1.0	0.69
COc1ccccc1OCCn1cc(C=NNC(N)=S)c2ccccc21	7.4	0.66
COc1cc(C=NNC(=O)Cc2nnc(NC(=O)c3ccccc3)s2)ccc1O	3.2	0.64
CC(C)N=C1SCC(C)(C=NO)S1 (stereo not given)	3.4	0.7
COC(=O)C(C=NOCc1ccc([N+](=O)[O-])cc1)NC(=O)c1ccccc1 (stereo not given)	-3.9	0.72
Cn1cc(C=NNC(=O)c2cc3cc(Br)ccc3o2)c2ccccc21	-43	0.72
CC(=NNc1nc(-c2ccc(Cl)cc2)cs1)c1cccs1	-0.3	0.75
CC(=NN1CCN(Cc2ccc(Cl)cc2)CC1)c1ccc(F)cc1	2.2	0.68
CC(C)OC(=S)NC(=NS(=O)(=O)c1ccccc1)c1ccccc1	-0.6	0.66
O=C(NN=Cc1cc(Br)ccc1O)c1cccc(N2CCCC2=O)c1	-0.4	0.71
CCOc1ccc(S(=O)(=O)N=C(c2ccccc2)N(C)C)cc1	-0.7	0.72
Nc1nonc1-n1nnc(C(=O)NN=Cc2ccc(F)cc2)c1-c1cccs1	-2.0	0.66
CC(CC(=O)NC1CCCCC1)=NNC(=O)Cc1ccc(-c2ccccc2)cc1	1.8	0.63
Cc1ccc(S(=O)(=O)N2CCN(CC(=O)NN=Cc3ccccn3)CC2)cc1	2.4	0.71
CC(=O)Nc1ccc(NC(=O)C(=O)NN=Cc2cccnc2)cc1	-13	0.61
COc1cccc(C=NNc2ncnc3c2[nH]c2ccc(C)cc23)c1OC	-4.0	0.67
CCCCNC(=O)N(O)C1N(N=Cc2cccnc2)C(=S)SC1(C)C (stereo not given)	6.4	0.67
CCN(CC)c1ccc(/C=C2\CCC(C=NNC(=O)c3ccc(=O)n(C)c3)=C2N2CCOCC2)cc1	12	0.74
